High-throughput results deposited in PubChem by Broad Institute.
Tgondii IFNg: inhibitors of Toxoplasma gondii growth with IFN-gamma. AID 1259416. Toxoplasma gondii growth in IFN-gamma-treated host cells; active compounds read low; reference of the scale not given here. activity change, negative = inhibition, %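 (about 20 µM by stock and volumes)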. 69,000 compounds, 3.8% hits;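 active = below -70%; inconclusive = fit judged invalid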;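 also: host cells are HeLa cells infected with Toxoplasma gondii; parasite growth read as luciferase light; one replicate is shown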
* marks the source's active call; other numbers are inactive results; i = inactive; ? = inconclusive; & = joins results of further samples.

SMILES	Tgondii IFNg
O=C(c1cccnc1)N1CCC2(CCN(C(=O)C3CCOCC3)CC2)C1	3
CN1CCC2(CC1)CCN(S(=O)(=O)Cc1ccccc1Cl)C2	8
Cc1cc(F)ccc1NS(=O)(=O)c1cc2c3c(c1)CCN3C(=O)CC2	-45
CN(C)C[C@@]12COC[C@H]1CN(C(=O)C1CC(F)(F)C1)C2	i
CCOc1ccccc1C(=O)NCCc1sc(-c2ccc(F)cc2)nc1C	-63
CCCC(C)c1nnc(NC(=O)c2cnc(-c3ccccn3)nc2)s1 (stereo unspecified)	-17
Cc1cc(C)n(C(=O)C(c2ccccc2)c2ccccc2)n1	-25
OCc1ccccc1O	9
O=C(O)C1CC(N2CCCC2)CCN1C(=O)Cc1ccsc1 (stereo unspecified)	-1
O=C(NCc1cnc2n1CCN(Cc1ccccn1)C2)C1CC1	-4
COc1ccc(-c2nc(C(=O)Nc3ccc4ncn(C)c4c3)cs2)cc1	-9
O=C(Nc1ccc(F)c(F)c1)c1c(O)c2ccccc2n(-c2ccccc2)c1=O	44
CCC(Nc1cccc(OC)c1)C(=O)NCc1cc(=O)[nH]cn1 (stereo unspecified)	8
COc1ccccc1-c1cc(C(=O)N2CCC(O)(c3ccccc3)C2)[nH]n1 (stereo unspecified)	-7
CCOc1ccc(NC(=O)C(=O)NCCc2sc(-c3cccc(C)c3)nc2C)cc1	29
COCCn1cncc1CNC(=O)c1cc(NC(C)=O)ccc1Cl	6
COc1cccc(C(=O)Nc2ccc3c(c2)C(=O)N(C)[C@@H]2CC[C@H](CC(=O)N[C@@H](C)c4ccccc4)O[C@H]2CO3)c1	-34
Cc1c(C(=O)N(C)Cc2ccco2)sc2ncnc(N3CCCCCCC3)c12	-12
Clc1ccc(OCc2ccsc2Cn2cccc2)cc1	-26
CC(=O)c1cn(CC(=O)NC2CCC(n3cnnc3)CC2)c2ccccc12 (stereo unspecified)	-35
O=C(c1cc(-c2ccn(C3CCCC3)n2)n2ccccc12)N1CCC(O)CC1	-51
Cc1oc(-c2cccc(Cl)c2)nc1CN(c1ccccc1)S(=O)(=O)c1ccccc1	12
CSc1ccc2cc(CN3CCC(N(C)CCO)CC3)c(=O)[nH]c2c1	4
O=C(Nc1ccc(-c2noc(-c3cccs3)n2)cc1)c1cccc(Cl)c1	-30
CN(C)C(=O)C[C@@H]1C=C[C@H](NC(=O)c2ccc(F)cc2)[C@@H](CO)O1	-10

2 compounds picked at random from the list so far, as already listed:
SMILES	Tgondii IFNg
O=C(Nc1ccc(F)c(F)c1)c1c(O)c2ccccc2n(-c2ccccc2)c1=O	44
COCCn1cncc1CNC(=O)c1cc(NC(C)=O)ccc1Cl	6

(further entries)
SMILES	Tgondii IFNg
CC(C)ON([C@@H](C(=O)NO)C(C)C)S(=O)(=O)c1ccc(-c2ccccc2)cc1	-75*
Cc1ccc(C(=O)NC2CCCCC2)cc1C	62
CO[C@H]1CC[C@@H]2CCN(C)C(=O)[C@H](C)CN(C)C(=O)c3cc(C#N)ccc3OC[C@H]1O2	23
Cc1ccc(CN2C[C@@H](c3ccccc3)[C@@]3(CCNC3=O)C2)o1	-31
COc1ccc(C)cc1NC(=O)c1c(O)c2cccnc2n(-c2cccc(F)c2)c1=O	62
COc1ccc(N2CC(NC(=O)c3cn4cc(Cl)ccc4n3)CC2=O)cc1 (stereo unspecified)	-29
COc1ccc(CNC(=O)c2nc(-c3ccc(C)cc3)n3c2CCCCC3)cc1	-70
CCCOCC1CCN(c2nccc(NC)n2)C1 (stereo unspecified)	-7
C[C@@H]1CCCCO[C@@H](CN(C)C(=O)c2ccncc2)[C@@H](C)CN([C@@H](C)CO)C(=O)c2cc(NS(=O)(=O)c3cccs3)ccc2O1	18
CCC(C)(C)C(=O)O	22
CCS(=O)(=O)N1C[C@H]2CN(c3ccsc3)C(=O)[C@H]2C1	10
CN(CCCSc1ccccc1)Cc1ccc(C(F)(F)F)nc1	4
COc1cc2c(cc1C(F)(F)F)N(C(=O)Nc1cc(F)cc(-c3cccnc3)c1)CC2	-50
Cc1ccc(C2(O)CCN(CC(=O)N3C[C@@H](C)O[C@@H](C)C3)CC2)nc1	1
COC(=O)c1ccc(Cl)cc1NC(=O)N1CCC2(CC1)Nc1ccccc1-n1cccc12	176
COc1cc(NC2CC3(CCN(C)CC3)Oc3ccccc32)ncn1 (stereo unspecified)	-8
O=C(NC[C@@H]1[C@@H](c2ccccc2)[C@H](CO)N1Cc1cccnc1)c1ccccn1	-15
OCC1OC(n2cnc3c(NC4CCCC4)nc(Cl)nc32)C(O)C1O (stereo unspecified)	2
CC(=O)Nc1ccc(S(=O)(=O)N2CCC3(CC2)Nc2cc(C)ccc2-n2cccc23)cc1	13
Cc1ccccc1Cn1c(Cc2ccccc2F)n[nH]c1=O	-25
Cc1ccc(C2c3[nH]c4ccccc4c3CCN2C(=O)COc2ccccc2)cc1 (stereo unspecified)	-117*
c1ccc(-c2nnc(Sc3ncnc4sc5c(c34)CCCC5)n2-c2ccccc2)cc1	7
NCCNC(=O)c1nc(-c2ccc(Br)o2)no1	-63
CN1CCCC2(CCN(C(=O)CCCn3cnnn3)C2)C1=O (stereo unspecified)	?
CCCCn1c(=O)cc(O)c2ccccc21	-3
SMILES	Tgondii IFNg
OC[C@H]1[C@H](c2ccc(C#Cc3ccccc3F)cc2)[C@@H]2CN(CC3CCOCC3)CCCCN12	-52
COc1ccccc1CN1C[C@@H](C(=O)NCC2CCOCC2)[C@@H]2OCC[C@H]21	2
CCN1C[C@H](COC)[C@]2(CCN(C(=O)N3CCCC3)C2)C1	-11
Cc1ccc(C(c2nnnn2C(C)(C)C)N2CCN(Cc3ccccc3)CC2)cc1 (stereo unspecified)	-33
O=C(O)c1ccc(NC(=S)NCc2cccs2)cc1	33
Cc1nc(-c2nnc(SCc3ccccc3)n2-c2cccc(F)c2)cs1	9
CCCCC(=O)Nc1ccc(C(=O)NC(C)c2ncn[nH]2)cc1 (stereo unspecified)	53
CCN(CC)C(=O)[C@@H]1C[C@H](N)CN1C(=O)c1cccc(-n2cnnc2)c1	-7
CC(C)N1CCc2c(CNC(=O)c3nccn3C)cncc2C1	-11
COc1ccccc1N1CCN(c2nc(-c3ccc(Cl)cc3)nc3ccccc23)CC1	9
O=C(CC1COCCN1)N(Cc1cccnc1)Cc1cccnc1 (stereo unspecified)	-1
Nc1ccc(S(=O)(=O)NC(=O)c2ccccc2)cc1	?
Cc1ccc(C2(O)CCN(CC(=O)NCc3ccccn3)CC2)nc1	3
CCc1ccccc1C(=O)N1CC[C@H](O)[C@@H](O)C1	0
CCN1CCCC1CNC(=O)C1CCN(Cc2cc3ccccc3n2Cc2ccc(Cl)cc2)CC1 (stereo unspecified)	-30
O=C(Nc1ccc(Cl)cc1)N1CCN(c2cccc3[nH]ccc23)CC1	189
COc1ccccc1N(Cc1nc(-c2ccccc2)oc1C)S(=O)(=O)c1ccccc1C	-26
N#Cc1ccc(CSc2ncccc2-c2nc3ccccc3[nH]2)cc1	-48
N#C[C@@H]1[C@@H](c2ccccc2-c2cccc(F)c2)[C@@H](CO)N1C(=O)CN1CCOCC1	-4
FC(F)(F)COc1nc(N2CCOCC2)nc(N2CCN(c3ccccc3)CC2)n1	-32
O=C(c1cccs1)N1C[C@H]2OC(=O)N(CCc3ccc(F)cc3)[C@H]2C1	4
Cc1noc(C)c1S(=O)(=O)Nc1csc(C(F)(F)F)c1-c1ccccc1	-7
CC1C(c2ccc(F)cc2)=NOC1C(=O)NC(c1ccccc1)c1cccnc1 (stereo unspecified)	-19
Cc1ccccc1NC(=O)Cn1ncc2c(N3CCN(c4ccccc4)CC3)ncnc21	94
CN(C)CC(=O)N1Cc2nc(C(=O)NCc3cccc(F)c3)oc2C1	-2
SMILES	Tgondii IFNg
CCN(CC)CC(=O)N1CCOC(c2ncncc2-c2ccnc(N)c2)C1 (stereo unspecified)	5
O=C(c1ccccc1F)N1CCC2(CC1)Nc1ccc(Cl)cc1-n1cccc12	43
Cc1sc(C(=O)N2CCCc3ccccc32)cc1S(=O)(=O)N1CCOCC1	-54
CC(Oc1ccc(-n2cnnn2)cc1)C(=O)N1CCCCC1CN1CCCCCC1 (stereo unspecified)	-5
COc1ccc2c(c1OC)C(=O)OC2[C@H]1c2c(cc3c(c2OC)OCO3)CCN1C (stereo partly specified)	24
O=C(C[C@H]1CC[C@H]2[C@@H](COC[C@@H](O)CN2Cc2ccc(C(F)(F)F)cc2)O1)N1CCc2ccccc2C1	-43
CSc1cccc(NC(=O)COc2nc(C)nc3ccccc23)c1	18
CN(Cc1ccc2c(c1)OCO2)Cc1cc2n(n1)CCCNC2	0
O=S(=O)(c1ccc(Cl)cc1)C(F)F	-37
CN1C(=O)CCC12CCC(NC(=O)c1ccc[nH]1)CC2 (stereo unspecified)	-42
C=CCOCC1CN(C(=O)c2cnc(C)cn2)Cc2ccnn2C1 (stereo unspecified)	3
Cc1cc(CN2CCOCC3(CCN(c4ncccn4)C3)C2)oc1C (stereo unspecified)	6
Cn1c(SCC(=O)NCCc2ccccc2)nnc1C1CCCCC1	19
COCc1nnn2c1CN(Cc1csc(C)n1)CCC2	7
C=CCC(=O)N(CC)CCOc1cccc(C)c1	24
COc1ccc2[nH]c(S(=O)Cc3ncc(C)c(OC)c3C)nc2n1 (stereo unspecified)	17&8
O=C(N[C@H]1CC[C@@H](CCNS(=O)(=O)c2ccc(F)cc2)O[C@@H]1CO)C1CCC1	0
Cc1ccc(-c2cc(O)c3c(c2)CN(C(=O)C(C)N2CCCC2=O)CCO3)cc1 (stereo unspecified)	0
Cc1ccnc(N2CCN(C3CCC4(CCNCC4)CC3)CC2)c1	51
O=C(CN1CCN(S(=O)(=O)N2CCCC2)CC1)Nc1ccc2ncccc2c1	4
C[C@H]1CN2C[C@H](O)CC2CN1CC(C)(C)CN1CCOCC1 (stereo partly specified)	24
Oc1cccc(-c2ccc(NC3CCCC3)nn2)c1	13
O=c1ccc2cc(S(=O)(=O)NCCN3CCc4ccccc4C3)ccc2[nH]1	-66
Cc1ccc(C(=O)N2CCCC(c3nn(C)c4ncccc34)C2)s1 (stereo unspecified)	59
CSC[C@H](N)C(=O)O	15
SMILES	Tgondii IFNg
COc1ccc(CCNC(=O)N(C)C(C)c2nc(C)sc2C)cc1 (stereo unspecified)	1
COc1ccc2c(CCNC(=O)c3ccc([N+](=O)[O-])cc3)c[nH]c2c1	16
CCOc1ccc(NC(=O)Cn2c(=O)cc(-c3nc(C)no3)c3ccccc32)cc1	21
Cc1ccc(NC(=O)C(=O)NCCc2sc(-c3cccc(F)c3)nc2C)cc1Cl	-15
C=CCN(Cc1ccc(F)cc1)C(=O)CC1C(=O)Nc2cc(C)cc(C)c21 (stereo unspecified)	4
Cc1ccccc1NC(=O)N1CCC[C@]2(C(=O)N(C)C)CN(Cc3cnn(C)c3)C[C@H]2C1	3
CCn1c(=O)c(-c2nc(-c3ccc(Br)cc3)no2)c(O)c2ccc(F)cc21	6
O=C(NCc1nc(-c2ccccc2F)no1)c1cccs1	-3
Nc1[nH]ncc1C(=O)Nc1cccc(C(F)(F)F)c1	6
CC(C)C[C@H](NC(=O)[C@H](CCc1ccccc1)NC(=O)CN1CCOCC1)C(=O)N[C@@H](Cc1ccccc1)C(=O)N[C@@H](CC(C)C)C(=O)[C@@]1(C)CO1	-63
O=C(NC1CC2(CCNCC2)c2ccccc21)C1CC1 (stereo unspecified)	65
Cc1nn(C(=O)C23CC4CC(CC(C4)C2)C3)c(C)c1Sc1ccccc1	5
Cc1ccc(-c2nc(Cn3nnc(-c4nc(-c5ccc(OC(F)(F)F)cc5)no4)c3C)c(C)o2)cc1	-38
COc1ccc(-c2nc(Cc3noc(-c4ccc(C#N)cc4)n3)c(C)o2)cc1	-5
CCOc1cccc(OCCN2CCC(C(=O)NC)C2)c1 (stereo unspecified)	1
CCN(Cc1cncn1C)c1ccc(OCCOc2ccccc2OC)cc1	i
Cc1c(C)c(C)c2[nH]c(-c3ccc4c(c3)OCO4)nc2c1C	-95*
Cc1ccc(CSC2=Nc3ccccc3C3=NC(CC(=O)NC4CCCCC4)C(=O)N23)cc1 (stereo unspecified)	-43
CN(c1cncc(C(=O)N2CCN(c3cccc(Cl)c3)CC2)c1)S(=O)(=O)c1ccccc1	-15
COc1ccccc1/C=C/C(=O)OCCN1CCOCC1	11
COc1ccc(NC(=O)N2CCC(c3nc(C(=O)N4CCCCC4)c(C)o3)CC2)c(C)c1	-28
Oc1cccc(-c2nccn2-c2cccc(-c3ccn[nH]3)c2)c1	-65
COCc1ncn2c1CN(S(=O)(=O)c1cccs1)CCC2	1
CCN1C(=O)CCCC12CCCN(C(=O)c1cccc3cccnc13)C2 (stereo unspecified)	-3
CO[C@H]1CC[C@@H]2[C@H]1OCCN2S(=O)(=O)c1c(C)nn(C)c1C	-2

Exported bar-delimited: entries from further up
smiles | Tgondii IFNg
O=C(NC1CC2(CCNCC2)c2ccccc21)C1CC1 (stereo unspecified) | 65
Cc1nn(C(=O)C23CC4CC(CC(C4)C2)C3)c(C)c1Sc1ccccc1 | 5
Cc1ccc(-c2nc(Cn3nnc(-c4nc(-c5ccc(OC(F)(F)F)cc5)no4)c3C)c(C)o2)cc1 | -38
COc1ccc(-c2nc(Cc3noc(-c4ccc(C#N)cc4)n3)c(C)o2)cc1 | -5
CCOc1cccc(OCCN2CCC(C(=O)NC)C2)c1 (stereo unspecified) | 1
CCN(Cc1cncn1C)c1ccc(OCCOc2ccccc2OC)cc1 | i
Cc1c(C)c(C)c2[nH]c(-c3ccc4c(c3)OCO4)nc2c1C | -95*
Cc1ccc(CSC2=Nc3ccccc3C3=NC(CC(=O)NC4CCCCC4)C(=O)N23)cc1 (stereo unspecified) | -43
CN(c1cncc(C(=O)N2CCN(c3cccc(Cl)c3)CC2)c1)S(=O)(=O)c1ccccc1 | -15
COc1ccccc1/C=C/C(=O)OCCN1CCOCC1 | 11
COc1ccc(NC(=O)N2CCC(c3nc(C(=O)N4CCCCC4)c(C)o3)CC2)c(C)c1 | -28
Oc1cccc(-c2nccn2-c2cccc(-c3ccn[nH]3)c2)c1 | -65
COCc1ncn2c1CN(S(=O)(=O)c1cccs1)CCC2 | 1
CCN1C(=O)CCCC12CCCN(C(=O)c1cccc3cccnc13)C2 (stereo unspecified) | -3
CO[C@H]1CC[C@@H]2[C@H]1OCCN2S(=O)(=O)c1c(C)nn(C)c1C | -2

These rows are one share of the data (hit frequency here may not be typical).
